Screening data from PubChem.
TSHR agonist = activates the human thyroid stimulating hormone receptor | P16473 | HEK293-CNG-TSHR cells (CNG channel as cAMP sensor), membrane potential dye, cAMP | Potency, µM (highest dose often 57.1 µM), without a hit: at the top dose activation, usual class: activators | actives 0.48% (n = 73,000); active = well fitted activation curve of enough size with the parental cells flat; inconclusive = any curve in the parental cells; inactive = parental cells flat and receptor cells flat or falling; also: potency is read from the fitted curve at half-maximal effect; % of control where 0% means no effect; weak receptor curves with flat parental cells got no call and are not listed
Target sequence (P16473 whole entry, looked up): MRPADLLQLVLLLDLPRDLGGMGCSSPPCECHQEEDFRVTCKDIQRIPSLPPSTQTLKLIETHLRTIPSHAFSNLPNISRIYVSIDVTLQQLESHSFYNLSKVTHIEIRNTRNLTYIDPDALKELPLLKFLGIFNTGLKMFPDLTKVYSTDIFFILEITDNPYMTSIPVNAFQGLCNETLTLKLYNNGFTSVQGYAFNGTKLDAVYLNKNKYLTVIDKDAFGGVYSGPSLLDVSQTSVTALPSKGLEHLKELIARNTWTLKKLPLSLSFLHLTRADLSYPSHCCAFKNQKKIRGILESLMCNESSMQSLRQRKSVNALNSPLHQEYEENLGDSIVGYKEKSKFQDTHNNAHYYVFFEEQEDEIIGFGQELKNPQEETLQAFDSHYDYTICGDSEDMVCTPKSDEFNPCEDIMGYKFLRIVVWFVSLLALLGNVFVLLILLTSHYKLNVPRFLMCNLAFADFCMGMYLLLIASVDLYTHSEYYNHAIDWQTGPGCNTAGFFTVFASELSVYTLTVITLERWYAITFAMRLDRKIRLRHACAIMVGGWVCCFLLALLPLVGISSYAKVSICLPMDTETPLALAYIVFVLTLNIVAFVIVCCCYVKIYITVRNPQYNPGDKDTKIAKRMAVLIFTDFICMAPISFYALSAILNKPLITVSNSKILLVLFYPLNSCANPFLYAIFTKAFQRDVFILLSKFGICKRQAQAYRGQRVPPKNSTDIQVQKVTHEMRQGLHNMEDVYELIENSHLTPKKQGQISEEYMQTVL
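HEK 293 cells stably expressing TSHR and a modified CNG channel, with CNG-only parental cells as counterscreen, were preloaded 60 min at room temperature with membrane potential dye containing 100 uM RO 20-1724. Compound exposure was 30 min, and depolarization was read as fluorescence at 590 nm.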
AID923 = qHTS Assay for Allosteric/Competitive Inhibitors of Caspase-1: Spectroscopic Profiling in AFC Spectral Region. compound fluorescence, AFC spectral region (405/520 nm); almost no hit is shown here. Potency, µM (highest dose often 57.5 µM), without a hit: at the top dose fluorescence increase, actives largely listed as activators. actives 1.1% (n = 75,000); active = well fitted activation curve with a large enough effect; inconclusive = small, poorly fitted or top-dose-only effect;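 also: potency is read from the fitted curve at half-maximal effect; 0% is about no effect; scaled to a free AFC standard on each plate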
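Titrations up to 57 uM read every 20 sec for 3 min (405/520 nm) with 50 nM caspase 1 and 5 uM Ac-WEHD-AFC, pH 7.5 HEPES buffer. Fluorescence-vs-time intercept gave baseline, scaled against on-plate AFC standard.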
A647 fluor = compound fluoresces in the A647 spectral region; Compound fluorescence, A647 channel (570/671 nm), Tris buffer; max dye-equivalent concentration, M; 59,000 tested, under 10 active; active means above 1 µM dye equivalent; inconclusive means 0.1 to 1 µM; inactive means 0.1 µM or less;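 also: values scaled relative to a standard on each plate; highest value over a series up to 38 µM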
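Each compound's intrinsic fluorescence at 570 nm excitation and 671 nm emission is measured across its concentration series in 100 mM Tris, pH 8.0, after 15 min at room temperature, and reported relative to an A647 curve.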
Resorufin fluor = compounds fluorescent in resorufin spectral region | Compound fluorescence, resorufin region 547/598 nm, buffer; hits give high values | max dye-equivalent concentration, M | actives 0.04% (n = 59,000); active = above 10 nM dye equivalent; inconclusive = 1 to 10 nM; inactive = 1 nM or less; a few of its hits are not listed in these tables; also: highest value over a series up to 38 µM
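Compounds in 100 mM Tris, pH 8.0, incubated 15 min at room temperature, then fluorescence read at 547 nm excitation/598 nm emission. Signal converted to dye-equivalent concentration via an on-plate six-point resorufin standard curve, per compound concentration.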
A488 fluor = compound fluoresces in the A488 spectral region; max dye equivalency, M; AID 591; actives 0.1% (n = 59,000); compound autofluorescence, A488 spectral region, dye equivalency; hits give high values; active = above 10 nM dye equivalent; inconclusive = 1 to 10 nM; inactive = 1 nM or less; about half of its hits are not listed in these tables;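 also: highest value over a series up to 38 µM; compound alone in buffer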
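Compound autofluorescence was read in 100 mM Tris pH 8.0 after 15 min at room temperature, ex 480 nm/em 540 nm. Intensities were converted to A488 dye-equivalent concentration using an on-plate six-point A488 standard curve.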
* marks the source's active call; other numbers are inactive results; i = inactive; ? = inconclusive; . = not tested or not shown; & = joins results of further samples; [ ] = another dose, or the depositor's remark. Only part of the results is shown. The share of hits here may be higher or lower than overall.

Results follow in this order: TSHR agonist	AID923	A647 fluor	Resorufin fluor	A488 fluor
COc1ccc(NC2CCN(C3CC(=O)N(c4ccc(F)c(Cl)c4)C3=O)CC2)cc1 (centres undefined)
    -28%	-2.7%	1e-09	i	i
C[C@@](Cc1ccc(O)c(O)c1)(NN)C(=O)O
    2%	1.3%	.	.	.
O=S(=O)(Nc1nc2ccccc2nc1NCc1ccco1)c1ccccc1
    ?	-1.2%	1.8e-08	i	i
Cc1cc(OCC(=O)NCCN2CCOCC2)ccc1Br
    -1%	5.4%	2.6e-08	i	i
O=C(NCCCN1CCOCC1)c1c(F)cccc1F
    -1%	0.1%	1e-09	i	i
CCOC(=O)c1c(NC(=O)c2ccc(Br)o2)sc(C)c1CC
    ?	14%	.	.	.
COc1cc(OC)c(C(=O)Nc2ccc(N(C)C)cc2)cc1OC
    -5%	-0.2%	2.6e-09	i	i
CS(=O)(=O)N(CCc1ccccc1)CC(=O)N1CCN(c2ccccc2)CC1
    13%	-2.6%	1.1e-08	i	i
Cc1ccc(O)c(-c2cc(C(=O)NCc3ccncc3)[nH]n2)c1
    17%	1.0%	1.8e-08	i	i
CCOC(=O)C1C(=O)CC(C)(O)C(C(=O)OCC)C1c1ccc(C)s1 (centres undefined)
    18%	2.4%	2.7e-09	i	i

(continued)
Results follow in this order: TSHR agonist	AID923	A647 fluor	Resorufin fluor	A488 fluor
CCn1c(C)nc2cc(-c3nc4n(n3)Cc3ccccc3-4)ccc21
    0%	-0.3%	9e-09	i	i
CSc1ccc(Cl)c(C(=O)OCC(=O)N2CC(C)OC(C)C2)c1 (centres undefined)
    -1%	-1.6%	6.1e-09	i	i
C/C(N)=C(/C#N)C(=O)CSc1nnc(Nc2c(C)cccc2C)s1
    -1%	-3.4%	1.8e-08	i	i
Cc1nc2c(ccc3nc(NC(=O)c4ccc(S(=O)(=O)N(C)C)cc4)sc32)s1
    4%[11.4 µM]	-1.3%	1.8e-09	i	i
CC(=O)c1sc(NC(=O)C=C(C)C)nc1C
    -5%	-0.3%	1e-09	i	i
O=C(CCC(=O)OCC(F)(F)C(F)F)NCc1ccccc1
    5%	-0.4%	.	.	.
CCCCOC(=O)CSc1nnc(-c2cc(OC)c(OC)c(OC)c2)o1
    2%	1.0%	1.7e-09	i	i
Cc1ccc(/C=C/C2=CC3(C)CC2(C)C(c2ccc(C)cc2)CC3=O)cc1 (centres undefined)
    4%[11.4 µM]	-4.3%[11.5 µM]	.	.	.
Cc1ccc(-n2c(SCC(=O)N3CCOCC3)nnc2-c2cccnc2)cc1
    -13%	2.8%	5.8e-08	i	i
CC12C=C(/C=C/C=C/c3ccccc3)C(C)(C1)C(/C=C/c1ccccc1)CC2=O (centres undefined)
    -2%[11.4 µM]	-0.8%[11.5 µM]	.	.	.

Later entries
Results follow in this order: TSHR agonist	AID923	A647 fluor	Resorufin fluor	A488 fluor
COCn1c(-c2ccc(OC)c(OC)c2)nc2ccccc21
    23%[11.4 µM]	-1.8%	.	.	.
COc1cc(C2C(C#N)=C(N)Oc3c2oc(CO)cc3=O)ccc1OC(C)C (centres undefined)
    -4%[11.4 µM]	-2.3%	3.2e-08	i	i
Cc1nn(-c2ccccc2)c(Cl)c1C1C(C#N)=C(N)OC2=C1C(=O)CC(C)(C)C2 (centres undefined)
    8%	2.4%	2e-09	i	i
Cc1ccc(NC(=O)COC(=O)Cn2c(C)csc2=O)cc1C
    -7%[11.4 µM]	0.8%	7.1e-09	i	i
O=C(O)c1csc(Br)c1Br
    ?	-1.9%	7.5e-09	i	i
CCSc1nnc(NC(=O)c2ccc3c(c2)OCO3)s1
    ?	4.2%	3e-09	i	i
O=C(NCCC1=CCCCC1)C1CCN(S(=O)(=O)c2cccc3cccnc23)CC1
    ?	-2.1%	.	.	.
COc1cc(S(=O)(=O)N2CCN(C)CC2)ccc1Cl
    1%	-0.8%	9.4e-09	i	i
CC(Oc1ccccc1)C(=O)Nc1ccc(S(=O)(=O)NCC2CCCO2)cc1 (centres undefined)
    -5%	0.8%	1.6e-08	i	i
CCOC(=O)c1c(NC(=O)OC)sc(C(=O)N(CC)CC)c1C
    ?	2.8%	.	.	.

The list goes on.
Results follow in this order: TSHR agonist	AID923	A647 fluor	Resorufin fluor	A488 fluor
COc1ccc(-c2cc3ccccc3n2CC(O)CN2CCN(CCO)CC2)cc1 (centres undefined)
    -11%	1.3%	.	.	.
COc1cccc(-c2nc(CS(=O)(=O)CC(=O)NCc3ccc(Cl)cc3)c(C)o2)c1
    25%	-1.2%	.	.	.
CCOC(=O)c1ccc(NC(=O)C(C)NS(=O)(=O)c2ccc(OC)cc2)cc1 (centres undefined)
    -8%	0.1%	1e-09	i	i
Cn1c2ccccc2c2c(C(=O)N3CCN(c4ccccn4)CC3)cn(C3CCCC3)c(=O)c21
    .	0.7%	2.9e-09	i	i
CCCn1c(SCC(=O)NC(C)(C)C)nnc1C(C)C
    -4%	-0.2%	1.4e-08	i	i
CCOCCO
    -5%	1.1%	.	.	.
N#CCCn1ccc(NC(=O)c2ccc(Cl)cc2)n1
    -9%	0.7%	3.8e-08	i	i
Cc1sc2nc(SCC(=O)N3CCCC3)[nH]c(=O)c2c1C
    3%	1.4%	.	.	.
CCC(C)C(=O)Nc1nnc(-c2cccs2)s1 (centres undefined)
    -2%	-0.8%	1.2e-09	i	i
O=S(=O)(NCc1cn2ccsc2n1)c1ccc2c(c1)OCCO2
    12%[11.4 µM]	0.5%	2.2e-08	i	i

The list continues.
Results follow in this order: TSHR agonist	AID923	A647 fluor	Resorufin fluor	A488 fluor
Cc1csc(SCC(=O)N2CCN(S(=O)(=O)c3ccccc3)CC2)n1
    18%	-2.6%	1e-09	i	i
CN1CCN(CC(=O)N2c3ccccc3C(=O)Nc3cccnc32)CC1
    1%	2.0%	1e-09&3.9e-08&1e-09	i	i
CCOC(=O)c1ccc(NC(=O)CSc2nnc(CNC(=O)c3ccccc3F)o2)cc1
    2%[11.4 µM]	-0.8%	2.8e-09	i	i
CCC(C)(C(=O)NC1CCCC1)N(Cc1cccs1)C(=O)Cc1cccs1 (centres undefined)
    ?	-1.7%	1e-09	i	i
N#Cc1c(C(F)(F)F)cc(-c2ccco2)nc1SCc1ccccn1
    ?	9.8%	1e-09	i	i
O=C(Nc1ccc2nsnc2c1)c1cccs1
    15%	15%	1e-09	i	i
Cc1ccc(S(=O)(=O)NCC(=O)N(CC(=O)NC2CCCC2)c2ccc3c(c2)OCCO3)cc1
    11%	-1.5%	7.5e-09	i	i
CCn1cc(C(=O)N(CCCN2CCOCC2)Cc2ccco2)c(=O)c2ccc(C)nc21
    2%[11.4 µM]	0.6%	6.5e-09	i	i
Cn1c(SCC(N)=O)nnc1C1CCN(C(=O)NC2CCCCC2)CC1
    -1%	1.2%	3.4e-08	i	i
NC(=O)CSc1nnc(-c2cccnc2)n1CCc1ccccc1
    -5%	-2.0%	1e-09	i	i

The listing continues.
Results follow in this order: TSHR agonist	AID923	A647 fluor	Resorufin fluor	A488 fluor
N=C(N)S/C=C\C(=O)O
    13%	4.7%	.	.	.
Cc1csc(NC(=O)C2C3C=CC(O3)C2C(=O)O)n1 (centres undefined)
    3%	-0.1%	6.7e-09	i	i
Cc1cc(Cl)c(S(=O)(=O)Nc2ccc3c(c2)OCO3)cc1OCC(N)=O
    13µM*	-0.8%	9.8e-09	i	i
Cc1cc(C)c2[nH]c(=O)c(CN(CC3CCCO3)C(=O)c3cnccn3)cc2c1 (centres undefined)
    8%	-0.4%	5.1e-08	i	i
C=CCCCC
    ?	-1.5%	.	.	.
CCc1ccc(NC(=O)Cn2c(SC)nc3ccccc32)cc1
    11%	2.3%	5.8e-08	i	i
CCOC(=O)c1c(C)[nH]c(C(=O)Cn2nnc(-c3ccccc3Cl)n2)c1C
    6%	-0.1%	2.2e-09	i	i
CCOc1ccccc1-n1c(SCC(=O)N2CCCC2)nnc1-c1ccoc1C
    ?	1.2%	6.1e-08	i	i
CC1CCN(CCc2nc3cc(NS(=O)(=O)c4ccc(F)cc4)ccc3n2C)CC1
    -16%	2.3%	3.7e-09	i	i
COC(=O)c1cc(OC)c(OC)cc1NC(=O)c1ccoc1C
    1%	-0.5%	5.8e-09	i	i

Reprinted from the part before: 3 entries; new compounds follow.
Results follow in this order: TSHR agonist	AID923	A647 fluor	Resorufin fluor	A488 fluor
CCOc1ccccc1-n1c(SCC(=O)N2CCCC2)nnc1-c1ccoc1C
    ?	1.2%	6.1e-08	i	i
CC1CCN(CCc2nc3cc(NS(=O)(=O)c4ccc(F)cc4)ccc3n2C)CC1
    -16%	2.3%	3.7e-09	i	i
COC(=O)c1cc(OC)c(OC)cc1NC(=O)c1ccoc1C
    1%	-0.5%	5.8e-09	i	i
Cc1nc(N2CCN(c3ccccc3)CC2)c2c3c(sc2n1)CCC3
    16µM*	2.3%	.	.	.
Cc1cc(C)c2c(n1)nn1c(NCCN3CCOCC3)cc(C)nc21
    4%	20%	2.8e-08	i	i
Cc1cc(C(=O)CSc2nnc(-c3ccccc3)n2C)c(C)n1C
    -2%	0.0%	4.2e-08	i	i
COc1ccc(C2(C(N)=O)CCCCC2)cc1OC
    3%	-1.4%	.	.	.
COc1ccc(C)cc1NC(=O)c1ccc2c(c1)OCO2
    ?	-0.5%	1.4e-09	i	i
COc1ccc(N2CCN(C(=O)c3cn(C4CCCC4)c(=O)c4c3c3ccccc3n4C)CC2)cc1
    3%	0.9%	1.2e-09	i	i
O=C(NC1(C(=O)NC2CCCCC2)CCCCC1)c1ccc2c(c1)OCO2
    ?	-2.1%	1.2e-08	i	i
CCOCN(C(=O)Cn1c(CO)nc2ccccc21)c1c(C)cccc1CC
    ?	0.0%	.	.	.
O=c1c(-c2cccc(F)c2)nc2cncnc2n1C1CC1
    -9%	3.2%	1.2e-09	i	i
CCCCN(CCCNC(=O)c1c(C)cc(=O)oc1C)c1ccccc1
    7%	-1.4%	1.5e-08	i	i

(next part)
Results follow in this order: TSHR agonist	AID923	A647 fluor	Resorufin fluor	A488 fluor
Cc1nn(-c2cccc(Cl)c2)c2c1C(c1cccnc1)C(C#N)=C(N)O2 (centres undefined)
    -1%	-1.4%	2.8e-08	i	i
Cc1c(CN2CCN(c3cccc(C(F)(F)F)c3)CC2)c(=O)n(-c2ccccc2)n1C
    7%	-0.6%	3.3e-09	i	i
Cc1ccc(-n2ncc3c(N4CCC(C(N)=O)CC4)ncnc32)c(C)c1
    .	.	3.4e-08	i	i
Cc1ccc(C)n1-c1ccc(-c2nnc3n2CCCCC3)s1
    3%	5.8%	8.4e-09	i	i
Cc1cccn2cc(-c3ccccc3)nc12
    ?	-0.7%	1e-09	i	i
COC(=O)CNC(=O)C1CCCN1C(=O)OC(C)(C)C (centres undefined)
    1%	1.1%	1e-09	i	i
OC(Cn1cccn1)c1ccccc1 (centres undefined)
    ?	0.3%	1e-09	i	i
CCCn1c(C)nc2c(NC3CCN(Cc4ccccc4)C3)nc(C)nc21 (centres undefined)
    19%	-0.5%	.	.	.
O=C(Nc1ccc(Cl)cc1)c1ccncc1
    24%	0.6%	.	.	.
Cc1nnc(SCC(=O)NC(C)(C)C)n1CCc1ccccc1
    -2%	-2.3%	6.5e-08	i	i

The list goes on:
Results follow in this order: TSHR agonist	AID923	A647 fluor	Resorufin fluor	A488 fluor
COc1ccccc1CCn1c(=O)c(-c2cccc(F)c2)nc2cncnc21
    ?	7.8%	3.7e-08	i	i
CN(C)c1nc(OCCOC(=O)Nc2ccc(Cl)cc2Cl)nc(N(C)C)n1
    .	.	1.7e-08	i	i
O=C(CN1C(=O)NC2(CCCCC2)C1=O)Nc1ccc(S(=O)(=O)N2CCOCC2)cc1
    -3%	1.9%	3.9e-08	i	i
Cc1ccc(C(C)C)c(OCC(=O)OCc2c(C)noc2C)c1
    8%	0.0%	1.5e-08	i	i
COCCCN(Cc1ccccn1)S(=O)(=O)Cc1ccccc1
    11%	0.9%	3e-09	i	i
